Screening results as filed in PubChem.
B2AR ag – activates human beta-2 adrenergic receptor causing internalization; response, % (test concentration not listed); 340,000 compounds, 0.43% hits; P07550; Am2.2-beta2AR cells, FAP receptor internalization, flow cytometry; reference of the scale not given here;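 active means response above a set limit, near 3 SD of response in nonfluorescent compounds, cut at about 42% in these data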;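 further: stock transfer was 100 nL into about 11 µL; a reference agonist was the positive control; negative values mostly stem from fluorescent compounds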
Target sequence (P07550 whole entry, looked up): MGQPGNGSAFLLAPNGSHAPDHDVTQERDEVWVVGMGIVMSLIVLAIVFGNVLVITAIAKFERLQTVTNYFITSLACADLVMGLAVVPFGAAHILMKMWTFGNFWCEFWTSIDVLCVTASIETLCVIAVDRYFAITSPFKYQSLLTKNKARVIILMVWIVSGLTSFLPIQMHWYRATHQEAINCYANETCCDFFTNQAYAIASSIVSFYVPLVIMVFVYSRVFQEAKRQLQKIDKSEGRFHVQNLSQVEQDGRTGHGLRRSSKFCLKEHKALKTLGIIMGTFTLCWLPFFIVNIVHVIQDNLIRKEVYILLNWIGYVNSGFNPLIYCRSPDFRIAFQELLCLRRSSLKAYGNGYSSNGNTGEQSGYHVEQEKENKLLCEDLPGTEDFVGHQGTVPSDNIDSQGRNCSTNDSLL
UCH37 inh – blocks the human deubiquitinase UCH37 | Q9Y5K5 | purified proteasome/UCH37, Ub-AMC cleavage fluorescence | inhibition, % (concentration not given with the values) | 330,000 compounds, 0.33% hits;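 active means mean of two replicates above 20%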;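 further: 0% = compound-free wells with enzyme and 100% = wells lacking proteasome; stock transfer was 100 nL into about 20 µL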
Target sequence (Q9Y5K5 whole entry, looked up): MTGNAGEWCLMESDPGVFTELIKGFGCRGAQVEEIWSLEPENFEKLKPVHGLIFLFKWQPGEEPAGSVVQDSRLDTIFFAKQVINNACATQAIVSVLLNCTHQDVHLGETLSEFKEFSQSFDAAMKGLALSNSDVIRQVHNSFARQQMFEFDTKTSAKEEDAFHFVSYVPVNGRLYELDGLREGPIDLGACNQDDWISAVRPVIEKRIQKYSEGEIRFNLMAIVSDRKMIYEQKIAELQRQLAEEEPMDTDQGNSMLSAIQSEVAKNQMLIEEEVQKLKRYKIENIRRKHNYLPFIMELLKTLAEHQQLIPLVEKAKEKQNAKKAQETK
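system = Proteasome-associated human UCH37 deubiquitinase | amount = 0.15 nM proteasome as dispensed | medium = pH 7.4 Tris-HCl (50 mM) with ovalbumin, ATP-MgCl2, DTT | incubation = 30 min preincubation with enzyme, 25 min cleavage at room temperature | detection = AMC fluorescence 355/460 nm | read-out basis = percent inhibition | controls = no-proteasome and no-compound wells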
Vif A3G – HIV-1 Vif–A3G interaction blockers – biochemical, TR-FRET, GST-Vif 1-94, biotin-A3G peptide, dose response retest, primary screen (AID 1117319); TR-FRET GST-Vif / biotin-A3G peptide binding; higher % means a stronger effect; test concentration not given here; strong numbers were not always called active; one-dose inhibition, %; IC50 in µM for titrated hits; 260,000 compounds, 0.57% hits;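 active means above the screen mean plus three standard deviations and confirmed in dose response; inconclusive means results disagree or hit not tested in dose response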;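 further: Vif residues 1-94 fused to GST binding biotinylated APOBEC3G peptide 110-148; 0% = full assay without inhibitor and 100% = GST in place of GST-Vif; retest series ran down from 100 µM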
LANA-H2A inh – blocks KSHV LANA binding to histone H2A/H2B; Q9QR71; cell-free LANA-H2A/H2B peptide, fluorescence polarization; inhibition, % (test concentration not listed); 320,000 compounds, 0.6% hits; AID 2629; in the data active means inhibition mostly above about 10%, no sharp cut-off; inactive means mostly below about 6.7%;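 further: stock transfer was 7.5 nL into about 10 µL; 0% = median of vehicle wells and 100% = median of positive control wells; one replicate is shown; the record names a cut of 25% in any replicate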
Ecoli growth – inhibitors of Escherichia coli growth; OD600 absorbance (concentration not given with the values); OD600, 23 h; stronger effect = lower value; 330,000 compounds, 0.21% hits;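 active means OD600 absorbance below the run mean of sample wells minus 3.6 SD, in any replicate, cut at about 0.56 in these data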;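 further: stock transfer was 300 nL into about 60 µL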
HNF4A DNA FP – change in binding of human HNF4 alpha to DNA; HNF4a-FITC DNA binding, fluorescence polarization, 1 h; activity change, % at 10 µM; 360,000 compounds, 0.3% hits; AID 1224865; in the data active means activity change above about 30%, passing the limit was not always enough;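 further: controls were the assay level and a saturating level of protein; the project sought stronger binding though the title names inhibitors; some compounds called inactive have numbers as strong as hits; positive values seem to mean higher polarization but the record does not say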
Bfl-1 A1 inh – inhibitors of the anti-apoptotic protein A1, read as caspase activation; MEF A1-2A-BIM cells, Caspase-Glo 3/7 luminescence, 3 h; percent of clofoctol response, vehicle zero; AID 2462; caspase activation, % (concentration not given with the values); 330,000 compounds, 0.066% hits;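 active means over half of replicate activation scores above 10%, or exactly half above 10 with the replicate mean above 10; inconclusive means replicate mean below 10 yet half the replicates above 10; inactive means over half of replicates below 10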;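 further: wells of about 30 µL received 50 nL stock; many hits fall short of the cut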
Active calls of the source: *; i = inactive; ? = inconclusive; / = not tested or not shown; & = joins results of further samples.

SMILES	B2AR ag	UCH37 inh	Vif A3G	LANA-H2A inh	Ecoli growth	HNF4A DNA FP	Bfl-1 A1 inh
COC1=CC(=O)OC(C)(c2ccccc2)C1 (stereo unspecified)	-9.3	0.5	-2.1%	/	0.676	1.8	/
Cc1cccc(C2(c3cccc(C)c3)CC2C(=O)NCC2CCCO2)c1 (stereo unspecified)	2.1	-0.2	-1.6%	-1.6	0.695	2.6	-0.2
O=[N+]([O-])c1cccc(CNc2ccc3c(c2)CCC3)c1	-3.5	4.7	4.8%	0.0	0.671	-2.1	0.2
O=C(O)c1cc(N2CCCCC2)nc2ccccc12	/	-22.2	/	/	0.692	4.5	/
COc1ccc(Cl)cc1NC(=O)COc1ccc2c(c1)OCO2	-5.6	0.2	4.8%	0.3	0.68	0.5	1.3
Cc1ccc(C(=O)N/C(=C/c2cccc([N+](=O)[O-])c2)C(=O)NC(C)C)cc1	-1.9	4.9	11.1%	4.0	0.699	1.0	1.2
O=C(c1ccc(-c2ccc([N+](=O)[O-])cc2Cl)o1)N1CCOCC1	-0.4	2.9	/	0.0	0.679	-2.6	-0.8
O=C(COC(=O)CNC(=O)c1ccc(Cl)cc1)Nc1ccc(Cl)cn1	1.5	/	/	-12.4	/	1.4	0.9
O=C1C2C3CCC(C3)C2C(=O)N1CNc1ccccc1 (stereo unspecified)	10.7	2.7	-1.4%	-2.6	0.675	-0.8	-0.9
Cc1cc2nc(-c3ccc(NC(=O)c4cccnc4)cc3)oc2cc1C	17.6	-4.2	19.2%	-5.2	0.674	-0.9	-0.9
Nc1nc(Cl)cc(-c2ccccc2)n1	-7.2	-2.2	/	0.6	0.667	-1.0	-1.0
O=C(CN1CCOCC1)N1CCCc2c1c(=O)oc1ccc(OCc3ccccc3)cc21	-4.7	-45.4	-0.8%	-1.8	0.704	3.1	-0.6
O=C(NC(O)C(=O)c1ccccc1)c1cccs1 (stereo unspecified)	3.7	2.9	19.2%	-0.1	0.693	5.5	-0.1
CCn1cc(C(=O)NN)c(=O)c2cc(F)c(N3CCCCC3)cc21	0.7	-6.7	-7.4%	/	0.683	3.2	/
Cc1cccc(C(=O)n2c(=S)nc3cc(C)ccn32)c1	-3.8	4.1	-52.9%	-3.2	0.615	1.1	-4.7
Cc1ccc(/C=N/NC(=O)c2ccccc2OCc2cccc(Br)c2)o1	-1.8	/	-2.8%	1.0	/	-1.2	-0.2
O=C(O)c1ccc(NS(=O)(=O)c2ccc3c(c2)C2C=CCC2C(c2ccccc2F)N3)cc1 (stereo unspecified)	4.8	6.0	-10.0%	/	0.688	-40.5	/
COc1ccc(NS(=O)(=O)c2ccc3[nH]c(=O)[nH]c3c2)cc1	-1.1	1.5	/	-3.4	0.715	-2.4	-0.1
COc1ccc2nc(NC(=O)C3CC(=O)N(c4ccc5c(c4)OCCO5)C3)sc2c1 (stereo unspecified)	6.9	-0.6	2.9%	/	0.692	2.8	/
CCC(=O)c1ccc(O)c(OC)c1	-53.6	0.4	4.2%	6.2	0.71	-3.1	0.5
CCN(CC(=O)Nc1cccc(OC)c1)C(=O)c1ccc(C)s1	-4.0	-0.3	7.6%	3.8	0.694	0.9	0.5
CSc1nnc2c(n1)OC1(Nc3ccccc3-2)C(=O)Nc2ccccc21 (stereo unspecified)	0.3	1.8	/	-6.0	0.701	-4.2	-0.8
COc1cccc(S(=O)(=O)c2nc(C)c3c(n2)CCC3)c1	4.9	0.3	17.1%	-7.8	0.688	0.1	-0.5
O=C(CSc1nc2ccccc2c(=O)n1CCCO)N1CCc2ccccc21	-5.5	2.5	4.8%	1.9	0.639	-1.1	-0.5
O=C(CCN1C(=O)/C(=C/C=C/c2ccccc2)SC1=S)Nc1nccs1	-7.5	8.9	-1.5%	4.3	0.705	14.6	-0.4
CC12CCC(C(=O)N(c3ccccn3)c3ccccn3)(OC1=O)C2(C)C (stereo unspecified)	-1.5	4.8	2.1%	-4.2	0.775	-2.8	1.0
Nc1ccc(NC(=O)NC2CCCCC2)cc1[N+](=O)[O-]	1.1	3.2	8.6%	0.7	0.709	0.0	-0.9
O=C(Nc1cccc2ccccc12)c1ccccc1	-3.1	0.6	-4.2%	-2.1	0.627	-0.6	-0.2
O=C(O)c1ccc2c(c1)[C@@H]1C=CC[C@@H]1[C@H](c1ccccn1)N2	-1.8	14.1	1.05µM*	2.9	0.702	-54.8	0.1
Cc1ccc2cc(CCNC(=O)CC(C)(C)C)c(=O)[nH]c2c1C	-3.3	-1.4	-1.2%	1.7	0.769	3.1	-0.3
O=C(CSc1nnc(-c2cccs2)n1Cc1ccccc1)NCc1ccc2c(c1)OCO2	-6.8	-2.2	-10.0%	1.8	0.701	1.0	-0.6
COc1ccc(N2C(=O)NC3CC2(C)Oc2ccc(Cl)cc23)cc1OC (stereo unspecified)	-17.3	/	-3.2%	1.8	0.705	-1.0	-0.5
Cc1nc(SCCOc2ccc(F)cc2)c2ccccc2n1	5.8	1.7	-4.0%	-5.8	0.72	0.5	1.0
CCOC(=O)c1ccc(-n2c(CCC(=O)O)ccc2-c2ccc(F)cc2)cc1	0.2	/	-6.5%	-9.2	/	1.7	0.7
Nc1nnc(SCC(=O)NNC(=O)c2ccc(F)cc2)s1	-4.8	0.7	5.0%	1.5	0.668	-2.1	0.0
O=S(=O)(c1ccc(F)c(F)c1)N1CCC2(CC1)OCCO2	-2.3	2.5	2.1%	1.4	0.661	1.6	0.5
CSc1nc(C)c(Cc2c(F)cccc2Cl)c(=O)[nH]1	-2.3	1.5	?	7.1	0.715	-1.4	0.1
O=C(c1cnn2c(C(F)F)cc(-c3ccccc3)nc12)N1CCN(Cc2ccc3c(c2)OCO3)CC1	23.8	-8.7	1.9%	-0.3	0.698	-1.6	0.6
O=C(CCc1c[nH]c2ccccc12)OCc1cccc([N+](=O)[O-])c1	-1.7	6.1	/	-12.1	0.7	0.8	-1.4
CN(Cc1cccc(-n2cccn2)c1)C(=O)CCc1nnc(C2CCCCC2)o1	-23.3	0.4	1.8%	0.3	0.698	-0.9	0.1
Cc1cc(C(=O)CSc2nnc(-c3ccc(OC(F)F)cc3)o2)c(C)n1Cc1cccs1	-1.8	1.4	?	-7.7	0.733	-0.9	0.0
Cc1ccccc1OCC(=O)NCC(=O)N/N=C/c1ccc(Br)o1	-2.9	/	5.7%	5.8	/	0.8	-0.5
CCOc1ccccc1N(CC(=O)NC(C)(C)C)C(=O)Cn1nnc(-c2ccc(C)o2)n1	-3.8	6.8	-2.4%	3.5	0.713	5.2	-0.3
Cc1ccc(C(=O)n2nc(-c3ccccc3)nc2NCc2ccco2)cc1	11.1	1.6	3.6%	2.8	0.68	2.6	-0.1
CCOC(=O)c1c(N)sc2c1CCCC2	3.3	0.5	11.9%	-5.7	0.697	1.1	-0.6
Cc1cccc(C(=O)NCCCNC(=O)c2ccco2)c1	-12.1	4.7	/	-8.4	0.706	0.4	-0.5
COC(=O)c1ccc(-n2cncn2)c([N+](=O)[O-])c1	-1.1	-1.0	-4.6%	3.4	0.665	-1.9	-0.8
CCN(CC(=O)Nc1c(F)cccc1F)C(=O)CC1CCCC1	3.5	5.5	-3.9%	-0.9	0.684	0.8	0.1
CC(Oc1ccccc1)C(=O)Nc1ccc(C(N)=O)cc1 (stereo unspecified)	-0.3	4.3	-2.0%	3.7	0.696	0.3	-0.7
COc1ccc(C(=O)OCC(=O)NC(=O)NC2CCCC2)c(OC)c1	-3.2	-0.6	-7.1%	7.3	0.706	2.4	0.1
CCC(C)c1ccc(O)c(N)c1 (stereo unspecified)	5.8	0.1	?	0.6	0.697	5.3	0.0
COc1ccc(Nc2nc(-c3cccnc3)nc3ccccc23)cn1	8.4	2.3	/	4.2	0.671	-36.9	-2.3
COc1ccc(N2CC(C(=O)OCC(=O)Nc3cccc(C)c3C)CC2=O)cc1 (stereo unspecified)	1.6	2.8	/	2.4	0.667	-0.2	0.3
CC1=C(C)C(OCCBr)N(c2cc(O)c(Cl)cc2F)C1=O (stereo unspecified)	3.0	1.3	/	-1.3	0.665	-2.9	-0.2
CCN(C(=O)CSc1nc(N)cc(=O)[nH]1)C1CCS(=O)(=O)C1 (stereo unspecified)	0.4	-0.5	12.5%	0.1	0.7	-0.1	1.0
CC(C)(C)OC(=O)NCCCCCc1nnc(SCc2ccccc2F)o1	-7.0	3.5	/	1.6	0.636	-1.8	-0.5
O=C(COc1ccc2ccccc2c1Br)NNC(=O)Nc1ccccc1	-2.0	6.8	-9.6%	1.4	0.718	-1.1	0.5
COc1ccc(CC(=O)Nc2ccc(S(=O)(=O)Nc3cc(C)on3)cc2)cc1OC	4.6	0.9	1.0%	0.3	0.699	-1.2	?
CCN(CC)Cc1c(O)ccc2c(C)c(CC(=O)OC)c(=O)oc12	-8.8	i	2.0%	-5.1	0.714	3.1	1.2
COC(=O)N/N=C/c1ccc(OCCSc2ccc(Cl)cc2)c(OC)c1	-9.6	/	/	1.3	/	0.0	0.3

A section from further up, as a working copy:
SMILES	B2AR ag	UCH37 inh	Vif A3G	LANA-H2A inh	Ecoli growth	HNF4A DNA FP	Bfl-1 A1 inh
Cc1cccc(C(=O)NCCCNC(=O)c2ccco2)c1	-12.1	4.7	/	-8.4	0.706	0.4	-0.5
COC(=O)c1ccc(-n2cncn2)c([N+](=O)[O-])c1	-1.1	-1.0	-4.6%	3.4	0.665	-1.9	-0.8

Next part
SMILES	B2AR ag	UCH37 inh	Vif A3G	LANA-H2A inh	Ecoli growth	HNF4A DNA FP	Bfl-1 A1 inh
Cc1cccc(NC(=O)CSc2ncnc3c2oc2ccccc23)c1	-6.0	-0.1	i	9.4	0.78	-0.3	0.6
CC(C)c1ccccc1NC1=CC(=O)CC(C)(C)C1	-1.0	1.7	-8.1%	-2.8	0.707	-3.1	0.1
COCCCn1c(SCC(=O)NCc2ccco2)nc2sc3c(c2c1=O)CCC3	-18.4	5.9	?	-2.2	0.675	-0.6	-0.3
COc1nc(N(C)C)nc(N(C#N)S(=O)(=O)c2ccc(C)cc2)n1	-1.8	/	/	-0.6	/	4.6	0.6
COc1ccc(N2CCN(S(=O)(=O)CCNC(=O)COc3ccccc3OC)CC2)cc1	-0.3	1.5	/	3.9	0.693	3.6	0.4
CC1CCN(C(=S)Nc2cccc(S(=O)(=O)N(C)C)c2)CC1	-2.0	2.2	?	-4.1	0.652	-0.4	0.7
COc1ccc(S(=O)(=O)N(CC(=O)NCCC(C)C)c2ccccc2)cc1OC	9.4	1.3	-1.2%	-2.9	0.692	-3.5	0.0
CC(CN1C(C)CCCC1C)OC(=O)c1cccc(Br)c1 (stereo unspecified)	-19.3	3.0	2.3%	-3.2	0.685	-0.5	-1.6
O=C(Nc1ccc(N2CCCC2)c(Cl)c1)c1cccs1	-3.3	4.3	-4.2%	2.4	0.647	7.1	-4.2
CCOC(=O)c1c(NC(=O)CSc2nnnn2-c2ccccc2OCC)sc2c1CC(C)(C)NC2(C)C	29.6	2.7	0.9%	-2.3	0.62	-2.4	-0.4
CC1=C(C(=O)OC2CCCCCC2)C(c2ccc(C)o2)C2=C(CCCC2=O)N1 (stereo unspecified)	-1.8	-14.2	3.4%&3.2%	-0.6	0.65	-0.7	0.7
COc1ccccc1CNc1ccc([N+](=O)[O-])cc1C	-1.2	5.3	-1.3%	-1.9	0.696	-2.3	-0.4
